RGS16-Gao HTS = regulators of human RGS16-Galphao interaction; binding response (% of control), % at 10 µM; actives 0.38% (n = 220,000); bead-based flow cytometry RGS16-Galphao binding, fluorescence; actives lie on both sides;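 active means below 25% or above 175%, edge rows of some plates excepted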;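 further: Galphao activated by GDP with aluminum fluoride before binding; 100% = wells without compound and 0% = beads without RGS; some results beyond the cut were filed as inactive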
HSV augment = HSV replication enhancement; HSV replication augmentation in cells, fold increase; maximum fold increase; actives 0.005% (n = 220,000);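 active means peak rise of 1.5-fold or more in the series; tested in PC3 cells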;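 further: first round at 10 µM; read as green reporter fluorescence; hits show the peak of a series up to 25 µM; 1 = signal of infected wells without compound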
GALR2 agonist = agonists of human galanin receptor 2 (GALR2) | O43603 | GALR2-expressing cells, agonist activation read-out | activation, %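 (tested at 5 µM)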 | actives 0.48% (n = 140,000);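 active means above mean plus 3 SD of all compounds, about 5% in these data, not always enough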;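 further: 0% = vehicle buffer wells and 100% = reference agonist at full effect; tested in CHO reporter cells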
Insulin prom inh = TRM-6 insulin promoter activity inhibition. TRM-6 cells (human fetal islet line), insulin promoter-eGFP reporter, imaging; reporter expression induced with tamoxifen. inhibition, % at 2 µM. actives 0.9% (n = 130,000);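 active means inhibition above the mean plus 3 SD, with well images judged a real hit on visual review, cut at about 60% in these data, passing the limit was not always enough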
PKD1 kinase inh = blocks activity of human protein kinase D1 | Q15139 | PKD1 kinase fluorescence polarization assay | inhibition, %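 (about 10 µM by stock and volumes)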 | actives 0.056% (n = 200,000);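 active means inhibition of 50% or more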;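 further: controls were vehicle for no effect and a reference inhibitor for full effect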
Target sequence (Q15139 whole entry, looked up): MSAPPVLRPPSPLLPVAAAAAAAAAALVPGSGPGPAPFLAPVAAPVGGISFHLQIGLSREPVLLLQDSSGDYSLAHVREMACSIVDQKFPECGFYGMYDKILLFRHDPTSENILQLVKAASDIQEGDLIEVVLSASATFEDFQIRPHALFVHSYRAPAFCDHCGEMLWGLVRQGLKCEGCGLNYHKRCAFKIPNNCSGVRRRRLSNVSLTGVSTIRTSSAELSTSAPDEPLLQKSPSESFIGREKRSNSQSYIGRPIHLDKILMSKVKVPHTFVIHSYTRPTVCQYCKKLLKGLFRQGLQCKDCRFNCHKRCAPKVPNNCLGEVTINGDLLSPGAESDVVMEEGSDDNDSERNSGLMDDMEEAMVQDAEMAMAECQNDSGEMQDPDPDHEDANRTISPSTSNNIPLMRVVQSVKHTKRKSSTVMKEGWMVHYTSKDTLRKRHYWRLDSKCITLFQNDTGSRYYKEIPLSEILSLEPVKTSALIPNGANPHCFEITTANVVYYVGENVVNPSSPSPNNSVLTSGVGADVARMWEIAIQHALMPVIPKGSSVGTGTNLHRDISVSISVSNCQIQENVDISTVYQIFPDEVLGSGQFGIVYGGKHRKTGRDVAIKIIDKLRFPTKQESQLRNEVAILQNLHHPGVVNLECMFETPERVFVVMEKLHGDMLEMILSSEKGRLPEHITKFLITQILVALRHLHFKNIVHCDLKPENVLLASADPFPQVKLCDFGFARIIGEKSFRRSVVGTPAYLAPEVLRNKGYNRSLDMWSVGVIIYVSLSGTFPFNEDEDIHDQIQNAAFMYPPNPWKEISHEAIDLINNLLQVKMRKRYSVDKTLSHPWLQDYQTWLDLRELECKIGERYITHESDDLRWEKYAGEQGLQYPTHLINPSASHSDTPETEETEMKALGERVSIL
Insulin prom inh cell count = recorded beside Insulin prom inh, whose call it bears; normalized cell count, %; measured here: cell count, toxicity; reference of the scale not given here;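 cells exposed to compound for 48 h; stained nuclei by imaging scaled within each plate; lower means fewer cells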
HSV augment primary fold = also measured in HSV augment; calls as there; fold increase; compound at 10 µM; measured here: primary screen fold increase 10 uM; tested in PC3 cells;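 GFP signal in the first replicate; 1 = infected wells without compound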
Numbers without * were called inactive; i = inactive; nt = not tested or not shown.

smiles,GALR2 agonist,HSV augment,Insulin prom inh cell count,PKD1 kinase inh,HSV augment primary fold,Insulin prom inh,RGS16-Gao HTS
CCc1ccccc1NC(=O)NC1CC2CCC(C1)N2Cc1ccco1 (configuration not stated),nt,i,nt,0,0.94,nt,97
Cn1c(C(=O)c2ccccc2[N+](=O)[O-])nc2ccccc21,nt,i,14*,1,0.85,80*,106
CCCCN(C)C(=S)Nc1ccsc1C(=O)OC,nt,i,nt,-1,0.94,nt,97
Cc1oc(CSCC2CCCO2)cc1C(=O)O (configuration not stated),-2.3,i,135,-7,0.84,-4,96
CCCCOc1ccc2c(c1)/C(=C(\C(Cl)=C(Cl)Cl)[N+](=O)[O-])N2,nt,i,nt,2,0.94,nt,95
Nc1nnc(SCCOc2cccc(Br)c2)s1,0.6,i,81,-6,0.96,-53,102
CCOC(=O)c1c(-c2ccccc2)oc2ccc(OC(C)=O)cc12,0.6,i,118,-5,0.89,38,102
COc1ccc(-c2nn(C)c(=O)c3ccccc23)cc1NS(C)(=O)=O,-1.9,i,186,-10,0.93,-29,103
CCN(CC)CC(C)OC(=O)c1cc(OC)c(OC)c(OC)c1 (configuration not stated),-3.6,i,120,-4,0.8,19,101
N/C(=N\c1nc2ccccc2o1)NC(=O)/C=C/c1ccccc1,nt,i,nt,nt,0.98,nt,102
COc1cc(OC)cc(C(=O)N2CCN=C2SCc2cccnc2)c1,-1.4,i,nt,-12,0.99,nt,112
Cc1cccc(N2Cc3ccccc3C2=NC(=O)c2ccc(Cl)nc2)c1,-2.3,i,80,-2,1.1,-23,97
O=C(COC(=O)c1ccccc1O)Nc1cccnc1Cl,0.3,i,111,-6,0.91,18,102
CCC(C)(C)n1nnnc1C(c1ccncc1)N1CCC(C)CC1 (configuration not stated),-3.8,i,55,-8,1,-381,101
CN(CC(=O)Nc1cccc(S(=O)(=O)NC2=NCCCCC2)c1)Cc1ccc(C(C)(C)C)cc1,nt,i,nt,6,0.79,nt,102
CN(C)CCNC(=O)C(=O)NCC1OCCN1S(=O)(=O)c1ccc([N+](=O)[O-])cc1 (configuration not stated),-1.2,i,85,5,0.9,-25,93
O=C(Nc1nc(-c2ccccc2)cs1)c1cccs1,-2.8,i,nt,7,0.79,nt,98
CCC(C)NC(=O)CN(c1ccc(Cl)c(Cl)c1)S(C)(=O)=O (configuration not stated),nt,i,nt,-1,1,nt,109
CCOC(=O)c1c(NC(=O)c2ccn(CC)n2)sc2c1CCCC2,1.9,i,62,-4,0.71,-30,99
CN1CCC/C1=C/C=C1\SC(=S)NC1=O,-1.6,i,97,-7,1.1,10,37
CC(C)Oc1ccc2c(c1)OC(c1ccccc1)(C(F)(F)F)NC2=O (configuration not stated),0.5,i,128,0,0.76,31,100
COc1ccc(S(=O)(=O)n2nc(OC(=O)c3ccccc3)cc2N)cc1,-0.8,i,nt,-2,0.97,nt,103
Cc1ccc2c(c1)C1CN(C)CCC1N2C(=O)c1ccccc1NS(=O)(=O)c1cccc(C(F)(F)F)c1 (configuration not stated),0.0,i,nt,0,0.82,nt,103
COC(=O)c1nc2n(n1)C(c1ccccc1OC)C1=C(CCCC1=O)N2 (configuration not stated),-0.6,i,nt,-12,0.95,nt,99
Cc1ccc(-c2ccc(=O)n(CC(=O)NCc3ccco3)n2)cc1,-2.4,i,137,-7,1.1,-4,99

Part of the list above in a different format.
Values run as follows: GALR2 agonist	HSV augment	Insulin prom inh cell count	PKD1 kinase inh	HSV augment primary fold	Insulin prom inh	RGS16-Gao HTS
O=C(COC(=O)c1ccccc1O)Nc1cccnc1Cl
 : 0.3	i	111	-6	0.91	18	102
O=C(Nc1nc(-c2ccccc2)cs1)c1cccs1
 : -2.8	i	nt	7	0.79	nt	98

Sorted by value in HSV augment primary fold (highest first): some entries from above
Compound | GALR2 agonist | HSV augment | PKD1 kinase inh | HSV augment primary fold | RGS16-Gao HTS
COc1ccc(-c2nn(C)c(=O)c3ccccc23)cc1NS(C)(=O)=O | -1.9 | i | -10 | 0.93 | 103
Cc1oc(CSCC2CCCO2)cc1C(=O)O (configuration not stated) | -2.3 | i | -7 | 0.84 | 96
Cc1ccc2c(c1)C1CN(C)CCC1N2C(=O)c1ccccc1NS(=O)(=O)c1cccc(C(F)(F)F)c1 (configuration not stated) | 0.0 | i | 0 | 0.82 | 103
O=C(Nc1nc(-c2ccccc2)cs1)c1cccs1 | -2.8 | i | 7 | 0.79 | 98

Carrying on:
smiles,GALR2 agonist,HSV augment,Insulin prom inh cell count,PKD1 kinase inh,HSV augment primary fold,Insulin prom inh,RGS16-Gao HTS
Cc1cc(NS(=O)(=O)c2ccc(NC(=O)c3cccc(OC(F)F)c3)cc2)nc(C)n1,nt,i,nt,-6,0.91,nt,101
CSC1=NCCN1C(=O)c1c(F)cccc1F,-1.4,i,nt,-6,0.85,nt,101
COc1cc2cc(C(c3nnnn3C3CCCC3)N3CCCCCC3)c(=O)[nH]c2cc1OC (configuration not stated),-1.6,i,95,2,0.89,4,106
O=C(O)CCN1C(=O)C2C3c4ccccc4C(c4ccccc43)[C@@H]2C1=O (some centres not stated),nt,i,nt,nt,0.81,nt,118
COc1ccc(-c2csc(N3C(=N)SCC3=O)n2)cc1,-2.5,i,108,-2,0.87,20,88
O=C(CSc1nnnn1-c1ccccc1)NC(=O)NCc1ccco1,-1.8,i,123,-6,0.92,21,86
COc1cccc(/C=N/NC(=O)C(=O)N2CCCC2)c1O,-1.4,i,nt,5,0.83,nt,93
O=C(/C=C/c1ccc(Cl)cc1)NCc1ccco1,-1.7,i,76,-7,0.9,-27,111
CCOc1ccc(C(=O)O/N=C(\N)c2ccc([N+](=O)[O-])cc2)cc1OCC,-2.0,i,nt,-1,0.96,nt,63
CCOCCCn1cnc2c([nH]c3cc(OC)ccc32)c1=O,-0.3,i,158,-7,1,-33,99
COc1ccccc1NS(=O)(=O)c1cccc(NC(=O)Cc2cccs2)c1,0.1,i,175,3,0.94,-15,99
Cc1cccc(NC(=O)c2cc3n(n2)C(C(F)(F)F)CC(c2ccc4c(c2)OCO4)N3)c1 (configuration not stated),-1.4,i,84,-11,0.87,43,93
O=C(CNCc1cccs1)Nc1ccc(N2CCCCCC2)cc1,nt,i,nt,0,0.71,nt,105
CCC(=O)c1ccc(N2CCCC2)c(F)c1,-0.3,i,93,-6,1,-233,109
CCCCc1ccc(NC(=S)NCc2cccnc2)cc1,-0.8,i,180,1,0.93,-3,98
COc1cccc(NC(=O)NCCCSC2CCCCC2)c1,-2.2,i,121,3,0.86,-29,100
Nc1nnc(N2CCCCCC2)s1,-3.2,i,114,4,0.99,0,99
Cc1cc(C)c(NC(=O)c2cc(=O)c3ccccc3o2)c(C)c1,-0.7,i,64,-10,0.91,-73,104
COCCn1c(C)cc(C(=O)CSc2nc3ccccc3c(=O)[nH]2)c1C,-1.1,i,97,-3,0.83,22,93
COc1ccccc1C(c1nnnn1Cc1ccco1)N1CCN(c2cccc(C)c2C)CC1 (configuration not stated),-2.2,i,92,-1,1.1,-62,100
O=C1CC(N2CCN(c3ccc(F)cc3)CC2)C(=O)N1c1ccccc1 (configuration not stated),nt,i,124,-6,1.1,-58,101
CC(C)NS(=O)(=O)c1ccc(NC(=O)C(C)Oc2ccc(C(=O)c3ccccc3)cc2)cc1 (configuration not stated),3.0,i,45,-3,0.85,51,66
COc1ccc(-c2cc(-c3ccccc3)nc(N3CCCC3)n2)cc1OC,-0.8,i,nt,-4,0.84,nt,90
O=C1NC2(CCCCC2)C(=O)N1Cc1cc(=O)n2ccsc2n1,nt,i,132,-5,1,8,96
COc1ccc(COc2cc(-c3cccc(OC)c3)nc3ccc(NC(=O)c4ccc(C)cc4)cc23)cc1,-2.5,i,119,8,0.58,0,99
COc1cc(NC(=O)N[C@@H](Cc2ccccc2)C(=O)O)cc(OC)c1,-1.7,i,88,-6,0.98,50,99
Cc1cc(=O)n2nc(N3CCCC(C(=O)N4CCc5ccccc54)C3)sc2n1 (configuration not stated),-1.1,i,109,-2,1,17,99
CC(=O)N1CCN(CC(=O)Nc2c(Cl)ccc(C)c2Cl)CC1,nt,i,nt,5,0.91,nt,99
O=C(Nc1ccc(N2CCCC2)c(Cl)c1)c1ccc2c(c1)OCCO2,-4.5,i,100,-5,0.94,73,105
CC(C)C(NC(=O)c1ccc(C(C)(C)C)cc1)C(=O)OCC(=O)NC(=O)Cc1ccccc1 (configuration not stated),-0.8,i,52,0,1.1,55,67
Cc1nn(Cc2ccccc2)c2sc(C(=O)NCc3cccnc3)cc12,-0.1,i,nt,0,0.97,nt,98
O=c1[nH]c(-c2ccc(Cl)cc2)nc(=S)[nH]1,nt,i,nt,nt,0.96,nt,100
CCOC(=O)C1(CC2CCCCO2)CCN(Cc2cn[nH]c2-c2cccc(F)c2)CC1 (configuration not stated),nt,i,nt,-2,1,nt,88
O=C1CC(NNC(=O)c2ccccc2)C(=O)N1 (configuration not stated),-2.0,i,177,-12,1.3,0,102
O=C(Nc1cc(S(=O)(=O)N2CCOCC2)ccc1N1CCCC1)c1cccnc1Cl,nt,i,nt,nt,0.96,nt,99
Cc1onc(-c2c(Cl)cccc2Cl)c1C(=O)NCc1ccccn1,-1.5,i,99,-2,0.75,-65,94
Cc1cccc(C)c1NC(=O)CSc1nnc(-c2ccco2)c(-c2ccco2)n1,-0.1,i,50,22,1,-58,71
CCOc1cc(-c2c(C#N)c(=O)[nH]c3c2c(C)nn3-c2ccc(F)cc2)ccc1O,-0.9,i,nt,-7,0.88,nt,103
CCCCOC(=O)Nc1ccc2c(C)cc(=O)oc2c1,0.3,i,147,0,0.91,-68,86
CCS(=O)(=O)N1CCCC(C(=O)NCCCOC)C1 (configuration not stated),-2.2,i,123,1,0.97,-48,100
COCc1nnc(NC(=O)c2cccc(NC(=O)C(C)C)c2)s1,nt,i,84,8,0.98,-14,11
COc1ccc(S(=O)(=O)N(CC(=O)Nc2ccc3c(c2)OCO3)c2ccccc2OC)cc1,-1.9,i,82,-4,0.9,46,97
CN(c1ccccc1)S(=O)(=O)c1ccc(Cl)c(C(=O)Nc2nn[nH]n2)c1,nt,i,nt,3,0.92,nt,103
CC1=C(C(=O)OCC2CCCO2)C(c2ccc(C)cc2)C2=C(CC(C)(C)CC2=O)N1 (configuration not stated),nt,i,nt,-6,0.81,nt,102
COC(=O)c1ccc(NC(CC(C)C)C(=O)OC)c([N+](=O)[O-])c1 (configuration not stated),-2.7,i,145,3,0.97,14,97
CCCC(=O)N/C(N)=N/c1nc2ccccc2o1,nt,i,nt,nt,1.1,nt,102
O=C(Nc1nncs1)c1cccc(S(=O)(=O)N2CCCCC2)c1,-1.2,i,108,-2,0.86,38,104
CC(C)=CCc1c(O)ccc2c1OC(c1ccc(O)c(O)c1)CC2=O (configuration not stated),nt,i,nt,5,0.8,nt,97
CCCOP(=O)(c1ccc(N(C)C)cc1)C(O)c1ccncc1 (configuration not stated),-1.6,i,158,-2,0.76,-28,43
Cc1ccc(Nc2nnc(-c3ccc(N4CCOCC4)c([N+](=O)[O-])c3)c3ccccc23)cc1,1.0,i,131,-2,0.81,-17,103
CCOC(=O)CSc1nnc(NCC(=O)OC(C)C)c(=O)[nH]1,-3.9,i,115,-3,0.92,-117,104
COC(=O)C1=NN(C(=O)c2cccc(Cl)c2)C(O)(C(C)(C)C)C1 (configuration not stated),-0.7,i,100,-18,0.8,0,105

High-throughput results: PubChem, several laboratories

Compounds as they come; 1.3% or so of the library scored in one or more.
